Rango complex inh: qHTS Assay for Inhibitors of Rango (Ran-regulated importin-beta cargo) - Importin beta complex formation. Importin subunit beta-1 (Homo sapiens), Q14974. Rango CFP/YFP FRET sensor + importin beta, 45 min. Potency, µM (highest dose often 92.2 µM), inactives show top-dose inhibition of complex formation. 340,000 compounds, 0.031% hits; active = rising FRET ratio curve, often small or poorly fitted; inconclusive = mostly compound fluorescence or quenching in the first reads; inactive = flat curves in all reads;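 also: potency is read from the fitted curve at half-maximal effect; 0% = DMSO wells and 100% = buffer wells lacking importin beta; nearly all actives have a fitted effect of over 15% in size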
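FRET biosensor Rango (snurportin 1 IBB between N-terminal EYFP and C-terminal Cerulean), 50 nM in PBS/1 mM DTT/0.02% Tween-20/0.1% BSA, preincubated 5 min RT with compound; 0.125 microM importin beta added, 45 min RT, CFP/YFP FRET ratio read.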
Rango dissoc inh: qHTS Assay for Inhibitors of RanGTP induced Rango (Ran-regulated importin-beta cargo) - Importin beta complex dissociation | Potency, µM (titrated, usually from 46.1 µM), inactives show at the top dose activity change, negative = inhibition | Biochemical FRET Rango-importin beta, RanGTP-induced dissociation | AID 540253, 2011 | 340,000 compounds, 0.071% hits | Snurportin-1 (Homo sapiens) + GTP-binding nuclear protein Ran (Homo sapiens) + Importin …; active means falling FRET ratio curve, often poorly fitted, with flat reads before Ran was added; inconclusive means other falling curves, or compound fluorescence or quenching; inactive means flat or rising ratio curve;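 also: potency is read from the fitted curve at half-maximal effect; % of control where 0% means no effect; nearly all actives have a fitted effect of over 45% in size; -100% = wells without RanGTP and RCC1; the record marks most hits as doubtful in a second field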
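Two FRET readings bracket the reaction: one 5 min after compound meets Rango–importin beta, another 45 min after RanGTP-RCC1 (0.6 uM Ran, 0.2 uM RCC1, 2 mM GTP) is added. Only the second defines inhibition.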
miR-21 FLuc: qHTS Assay for Modulators of miRNAs and/orActivators of miR-21. HeLa miR-21 FLuc reporter, luciferase, 48 h. Potency, µM (top dose mostly 38.3 µM), for inactives: at the highest dose reporter change, positive = more light. 340,000 tested, under 10 active; active = well fitted rising curve with a large enough effect; inconclusive = small, poorly fitted or top-dose-only effect; inactive = no such curve, though single readings can be large or run the other way;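 also: % of control where 0% means no effect; miR-21 action dims this reporter so a rising signal means less miR-21 action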
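HeLa miR-21-FLuc reporter line, endogenous miR-21; 2000 cells/well in DMEM/10% FBS; compound titration up to ~40uM final, 48 h, 37 degree Celsius; luciferase detection reagent, 15 min lysis, CCD luminescence.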
GLA inh pH 4.5: qHTS Assay for Inhibitors of Human alpha-Galactosidase at pH 4.5 | 230,000 tested, under 10 active | purified enzyme, 4-MU-alpha-Gal fluorescence, pH 4.5 | activity change, negative = inhibition, % at 105 µM | Alpha-galactosidase A (Homo sapiens), P06280 | AID 1467, 2008; inconclusive = small, poorly fitted or top-dose-only inhibition, or a rising curve; inactive = flat fitted curve, though single readings scatter; no compound was filed as active;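 also: 0% = full activity with enzyme and -100% = basal without enzyme; dose as in the result columns while the protocol names 77 µM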
Target sequence (P06280 whole entry, looked up): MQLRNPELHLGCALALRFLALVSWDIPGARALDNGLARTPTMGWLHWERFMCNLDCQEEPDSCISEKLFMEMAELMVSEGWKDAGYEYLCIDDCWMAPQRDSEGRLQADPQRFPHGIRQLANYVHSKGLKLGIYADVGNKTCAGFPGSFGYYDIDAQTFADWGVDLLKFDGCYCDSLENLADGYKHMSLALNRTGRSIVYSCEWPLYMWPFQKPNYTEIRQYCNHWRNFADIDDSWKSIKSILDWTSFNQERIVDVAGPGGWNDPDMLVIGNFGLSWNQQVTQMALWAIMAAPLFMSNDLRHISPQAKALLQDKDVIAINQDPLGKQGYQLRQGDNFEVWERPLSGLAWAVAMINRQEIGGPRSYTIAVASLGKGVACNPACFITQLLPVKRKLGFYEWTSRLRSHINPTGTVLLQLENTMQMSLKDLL
* = called active by the depositor; ? = inconclusive; / = not tested or not shown; & = joins results of further samples. A portion of the library; rates above refer to the full screens.

SMILES	Rango complex inh	Rango dissoc inh	miR-21 FLuc	GLA inh pH 4.5
CCOC(=O)C1=C(c2cccc(Oc3ccccc3)c2)NC(=S)NC1C (stereo not drawn)	1.2%	-3%	23%	-14
COc1ccccc1NC(=O)C1=C(C)NC2=C(C(=O)CCC2)C1c1ccc2c(c1)OCO2 (stereo not drawn)	?	-5%	-8%	-27
O=c1ccc(-c2ccc(S(=O)(=O)NCC3CCN(Cc4ccccc4F)CC3)s2)n[nH]1	3.6%	22%	-8%	/
CC(=O)Nc1ccc(CNC(=O)C[N+]2(C)CCOCC2)cc1	-1.1%	5%	-2%	1
O=C(O)CCC(=O)c1c[nH]c2ccccc12	-0.1%	18%	1%	3
CS(=O)(=O)N1CCN(c2ccc([N+](=O)[O-])c(NCc3ccc(Cl)cc3)c2)CC1	2.7%	-11%	-11%	-6
CCCc1cc(C(=O)N2CCCC(N3CCN(c4ccccc4C)CC3)C2)n(C)n1 (stereo not drawn)	1.0%	-10%	11%	/
COc1ccc(OC)c(/C=C/C(=O)N(C)CC(=O)Nc2cc(C)ccc2C)c1	-1.2%	-8%	-11%	-1
CCC(C)Sc1nc2c(c(=O)[nH]c(=O)n2C)n1C (stereo not drawn)	0.2%	6%	-37%	2
COC(=O)c1c(/N=C/NOCc2ccc(Cl)cc2)sc2c1CCN(c1ncc(C(F)(F)F)cc1Cl)C2	-2.4%	-2%	-2%	-7
COCCNc1nc2c(S(=O)(=O)c3cc(C)ccc3C)nnn2c2ccccc12	1.5%	2%	-6%	8
COc1cc(/C=N/NC(=O)C2c3ccccc3Oc3ccccc32)ccc1O	-2.2%	-7%	-1%	-14
N#Cc1ccccc1S(=O)(=O)N1CCC(C(=O)NCc2ccccc2CN2CCCC2)CC1	-2.9%	1%	/	/
CCOC(=O)CCc1cccc2c1CCC2=O	?	5%	-3%	-4
CCN(CC)CCNC(=O)c1sc2nc(-c3ccccc3)cn2c1C	0.0%	-6%	-19%	/
CCOC(=O)c1cc2occc2n1CC(=O)N1CCCc2ccccc21	-0.3%	1%	6%	2
O=C(Nc1ccc(Nc2ccccc2)cc1)c1ccc(Cl)cc1[N+](=O)[O-]	-0.9%	4%	/	/
CCOc1ccccc1NC(=O)N1CCC(C(=O)c2ccc(F)cc2)CC1	1.3%	-6%	-4%	4
COc1ccc(C(CNC(=O)c2ccc(OCC3CCCO3)cc2)N2CCOCC2)cc1 (stereo not drawn)	-1.3%	1%	-9%	-9
O=C(/C=C/c1ccccc1)Nc1cccnc1Cl	-0.8%	-11%	-63%	/
CN(CCc1ccccn1)C(=O)CCC1CCCN(C(=O)c2cscn2)C1 (stereo not drawn)	-2.9%	14%	1%	-7
c1ccc(Cn2cc(-c3ccccc3)cn2)cc1	0.4%	4%	/	/
CCc1ccccc1NC(=O)CCc1c(C)nc(SC)nc1C	5.0%	-13%	9%	/
CC(=O)c1ccc(NC(=O)Oc2ccccc2)cc1	0.8%	2%	-14%	2
COCCNC(=O)CC(=O)N/N=C/c1cccc(C(=O)OC)c1	-0.2%	6%	-3%	-13
SMILES	Rango complex inh	Rango dissoc inh	miR-21 FLuc	GLA inh pH 4.5
Cc1nc2ccccc2c(=O)n1NC(=O)c1cc(Br)ccc1Cl	-3.4%	12%	7%	5
Cc1ccc(C)c(Cn2c(=O)n(CCCC(=O)NCc3ccco3)c(=O)c3sccc32)c1	3.9%	9%	3%	3
Cc1ccc(NS(=O)(=O)c2cc(Br)cnc2N)cc1C	-1.3%	1%	12%	/
COc1ccc(OC)c(S(=O)(=O)NCc2nc3nc(C)cc(C)n3n2)c1	2.6%	2%	1%	/
Cc1ccc(Cl)cc1NS(=O)(=O)c1ccc(-n2cccn2)cc1	0.1%	1%	7%	/
Cc1ccc(-n2c(C)cc(C(=O)CN3C(=O)C(=O)N(C4CCCC4)C3=O)c2C)cc1	-1.7%	11%	-2%	1
CC1(C)CC(=O)C=C(c2cccc3c2sc2ccccc23)C1	1.5%	21%	/	/
O=C(Nc1cccc2cccnc12)c1ccc(Cl)cc1Cl	-1.8%	14%	-16%	/
O=C(NCc1ccc2c(c1)OCO2)c1ccc(-n2cnnn2)cc1	4.9%	5%	-8%	2
O=C(O)c1cccc(-n2cccc2C=C2C(=O)c3ccccc3C2=O)c1	?	-16%	-29%	-9
O=C1CCCc2ccc3ccccc3c21	0.4%	-12%	/	/
CC(C)Oc1ccc(C(=O)OCC(=O)NC(=O)NC2CCCC2)cc1	0.5%	-9%	/	/
Cc1cc(C)cc(CC2CC(=O)N(c3cc(C)on3)C2=O)c1 (stereo not drawn)	-0.7%	1%	8%	-4
CCCCn1c(Cc2ccccc2)n[nH]c1=S	3.1%	17%	-1%	3
O=C(CCS(=O)(=O)Cc1ccccc1)Nc1ncc([N+](=O)[O-])s1	-2.8%	-2%	-3%	/
c1ccc(COc2ncnc3c2ncn3CCCNCCN2CCOCC2)cc1	0.3%	2%	/	/
COc1ccccc1NC(=O)COc1ccc(C(F)(F)F)cc1[N+](=O)[O-]	-0.4%	23%	/	/
COC(=O)[C@@H](NC(=O)NC1CCCCC1C)C(C)C (stereo partly drawn)	-3.6%	-7%	-3%	10
CCC(C)n1c(SCc2ccccc2)nc2ccsc2c1=O (stereo not drawn)	1.9%	1%	-5%	-7
CC1(C)Cc2ccccc2-c2nc(NCCO)n(-c3ccccc3)c(=O)c21	-3.3%	0%	14%	16
COc1ccc(C(=O)NNC(=O)c2ccc(C(C)(C)C)cc2)cc1	-0.2%	-13%	-5%	-3
CCOC(=O)C1CCN(C(=O)CN(c2ccc3c(c2)OCO3)S(C)(=O)=O)CC1	-0.5%	1%	1%	6
COc1cc(OC)c(OC)cc1CN1CCN(S(=O)(=O)c2ccc(NC(C)=O)cc2)CC1	0.3%	4%	5%	-1
Cc1ccc(NC(=O)c2ccc(=O)[nH]c2)cc1S(=O)(=O)N1CCCCCC1	-1.0%	0%	/	/
CCOc1ccc(C(=O)OCC(=O)Nc2nc(OC)cc(OC)n2)cc1OCC	-5.7%	8%	-5%	7

A different layout for some results above.
Results follow in this order: Rango complex inh, Rango dissoc inh, miR-21 FLuc, GLA inh pH 4.5
> CC(C)Oc1ccc(C(=O)OCC(=O)NC(=O)NC2CCCC2)cc1
 : 0.5%, -9%, /, /
> COc1ccc(C(=O)NNC(=O)c2ccc(C(C)(C)C)cc2)cc1
 : -0.2%, -13%, -5%, -3
> Cc1ccc(NS(=O)(=O)c2cc(Br)cnc2N)cc1C
 : -1.3%, 1%, 12%, /
> Cc1ccc(C)c(Cn2c(=O)n(CCCC(=O)NCc3ccco3)c(=O)c3sccc32)c1
 : 3.9%, 9%, 3%, 3

The list continues:
SMILES	Rango complex inh	Rango dissoc inh	miR-21 FLuc	GLA inh pH 4.5
O=C(Nc1ccc2[nH]c(=O)[nH]c2c1)Nc1ccc(F)cc1F	?	-26%	-4%	-7
N=c1c(C(=O)NCC2CCCO2)cc2c(=O)n3ccccc3nc2n1C1CCCC1 (stereo not drawn)	?	?	-6%	/
CCC1CCCCN1Cc1nc2c(c(=O)n(C)c(=O)n2C)n1CC(C)C (stereo not drawn)	-0.5%	1%	-1%	-1
O=C(CNC(=O)C1CCCCC1)OCC(=O)c1cccc(Cl)c1	1.6%	-1%	/	/
Cc1ccn2c(/C=N/OCc3ccc(F)cc3)c(-c3ccc(Cl)cc3)nc2c1	-0.3%	3%	-1%	3
O=C(c1cccc([N+](=O)[O-])c1)N1CCc2ccccc21	0.1%	1%	0%	/
Cc1[nH]c2ccccc2c1/C=N/NC(=O)CCC(=O)Nc1ccccc1	0.3%	4%	0%	3
O=C1COc2ccc(-c3csc(=Nc4ccc(OC(F)F)cc4)n3CC3CCCO3)cc2N1 (stereo not drawn)	-2.9%	12%	19%	3
Cc1cc(N2CCOCC2)n2cc(-c3ccccc3)nc2n1	1.5%	-11%	3%	9
O=C(O)c1sc2cc(C(F)(F)F)cnc2c1-c1ccccc1	-0.3%	13%	0%	0
COc1ccc(N2CCN(CC(O)COc3ccc(C)c(C)c3)CC2)cc1 (stereo not drawn)	-4.8%	-1%	-5%&-6%	/
CCn1c(CNC(=O)c2ccc(OC)c(OC)c2)nnc1SCC(=O)Nc1ccccc1	?	-5%	-3%	0
Cc1ccc(S(=O)(=O)N2CCOCC2)cc1C(=O)OCC(=O)N1CCCC1=O	-0.8%	-13%	/	/
COc1ccc(C2CC(=O)C3=C(C2)Nc2ncnn2C3c2ccccc2)cc1 (stereo not drawn)	-0.3%	3%	-1%	4
Cc1ccc(NC(=O)c2c(C)nc3sc(C(=O)NC4CCCC4)c(N)c3c2-c2ccco2)c(C)c1	3.9%	0%	-9%	7
O=[N+]([O-])c1ccc(C(O)CN2CCN(C/C=C/c3ccccc3)CC2)cc1 (stereo not drawn)	0.5%	-12%	7%	/
CCN(CC)CCCNC(=O)c1ccc(N2CCCCC2)c(NS(=O)(=O)c2ccc(C)cc2)c1	1.4%	6%	-7%	2
c1ccc(-c2csc3ncnc(NCc4ccccn4)c23)cc1	-1.1%	6%	30%	-11
O=C(/C=C/c1ccccc1Cl)Nc1ccc(S(=O)(=O)Nc2ncccn2)cc1	1.2%	17%	-24%	4
O=C(Nc1ccccc1Cl)N1CCN(Cc2ccc3c(c2)OCO3)CC1	-0.5%	-6%	0%	3
COc1cccc(CN2C(=O)CCC2(C)C(=O)NCCc2ccc(OC)c(OC)c2)c1 (stereo not drawn)	2.9%	11%	6%	/
Cc1cc(C)cc(N(CC(=O)NC2CCCC2)S(=O)(=O)c2c(C)[nH]c(=O)[nH]c2=O)c1	0.6%	13%	-4%	2
Cn1nc(C(=O)OCC(=O)NC2CCS(=O)(=O)C2)c2ccccc2c1=O (stereo not drawn)	1.8%	1%	-1%	-13
COC(=O)c1sc2ccc(C)cc2c1C(=O)OC	5.0%	14%	/	/
COc1cccc(NC(=S)N(Cc2ccc(Cl)cc2)Cc2ccc(C(=O)O)cc2)c1	-2.9%	2%	-1%	-1

Quoted at random: 2 compounds from above
SMILES	Rango complex inh	Rango dissoc inh	miR-21 FLuc	GLA inh pH 4.5
O=C(/C=C/c1ccccc1Cl)Nc1ccc(S(=O)(=O)Nc2ncccn2)cc1	1.2%	17%	-24%	4
Cc1ccn2c(/C=N/OCc3ccc(F)cc3)c(-c3ccc(Cl)cc3)nc2c1	-0.3%	3%	-1%	3

The listing continues.
SMILES	Rango complex inh	Rango dissoc inh	miR-21 FLuc	GLA inh pH 4.5
CN(CC(=O)Nc1ccc(F)c(F)c1F)C(=O)c1ccc(=O)[nH]c1	0.1%	0%	-50%	/
COc1ccc(N=C2NC(=O)CS2)c([N+](=O)[O-])c1	-0.8%	-26%	-5%	-8
COc1ccc2c(c1)N(C)/C(=C1/SC(=S)N(NC(C)=O)C1=O)S2	?	?	1%	/
Cc1ccc(C)c(NC(=O)Cn2cnc3c(oc4ccccc43)c2=O)c1	-0.7%	1%	4%&4%	3
COc1cccc(-n2cnnc2SC(C)C(=O)NC2CCCC2)c1 (stereo not drawn)	4.9%	26%	/	/
Cc1ccc(NS(=O)(=O)c2ccc3c(c2)CCN3C(=O)CCC(=O)O)cc1Cl	1.8%	2%	-3%	/
Cc1cccc(N2CCN(C(=O)CSCc3c(C)noc3C)CC2)c1C	-3.8%	-3%	-2%	-4
COc1ccc(-c2nc(CS(=O)CC(=O)NCc3cccnc3)c(C)o2)cc1OC (stereo not drawn)	-2.1%	8%	-7%	-4
CC(=O)Nc1ccc(NC(=O)C(C)n2nc(C)c([N+](=O)[O-])c2C)cc1 (stereo not drawn)	0.3%	-13%	0%	-3
COc1ccc(C)c2sc(=NC(=O)C(C)C)n(C)c12	0.0%	-27%	0%	7
CCN(c1ccc(OCC(=O)OCC(=O)Nc2ccc(F)c(F)c2F)cc1)S(=O)(=O)c1ccccc1	1.0%	6%	-3%	-1
Cn1c(=O)cc(OCC(=O)NCCCN2CCN(Cc3ccccc3)CC2)c2ccccc21	0.1%	-10%	-1%	14
Cc1ccc(C(=O)Nc2cccc(C(=O)NC3CCCC3)c2)cc1	-0.5%	19%	-11%	/

Assay outcomes (PubChem)
